Compound activity as filed in PubChem.
PKD1 kinase inh – PKD1 (human) kinase inhibition; Q15139; inhibition, %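 (about 10 µM by stock and volumes)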; hit rate 0.056% among 200,000; PKD1 kinase fluorescence polarization assay;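 active = inhibition of 50% or more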;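 also: controls were vehicle for no effect and a reference inhibitor for full effect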
RGS16-Gao HTS – RGS16-Galphao interaction regulator (human) | bead-based flow cytometry RGS16-Galphao binding, fluorescence; actives lie on both sides | binding response (% of control), % at 10 µM | hit rate 0.38% among 220,000 | AID 1441;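 active = below 25% or above 175%, edge rows of some plates excepted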;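 also: Galphao activated by GDP with aluminum fluoride before binding; 100% = wells without compound and 0% = beads without RGS; some results beyond the cut were filed as inactive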
Target sequence (O15492 whole entry, looked up): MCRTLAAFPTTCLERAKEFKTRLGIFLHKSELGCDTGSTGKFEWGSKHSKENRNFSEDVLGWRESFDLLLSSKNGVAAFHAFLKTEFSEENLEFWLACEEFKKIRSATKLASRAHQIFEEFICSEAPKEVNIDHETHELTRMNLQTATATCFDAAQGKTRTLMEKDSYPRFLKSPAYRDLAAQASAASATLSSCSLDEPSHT
Target sequence (P09471 whole entry, looked up): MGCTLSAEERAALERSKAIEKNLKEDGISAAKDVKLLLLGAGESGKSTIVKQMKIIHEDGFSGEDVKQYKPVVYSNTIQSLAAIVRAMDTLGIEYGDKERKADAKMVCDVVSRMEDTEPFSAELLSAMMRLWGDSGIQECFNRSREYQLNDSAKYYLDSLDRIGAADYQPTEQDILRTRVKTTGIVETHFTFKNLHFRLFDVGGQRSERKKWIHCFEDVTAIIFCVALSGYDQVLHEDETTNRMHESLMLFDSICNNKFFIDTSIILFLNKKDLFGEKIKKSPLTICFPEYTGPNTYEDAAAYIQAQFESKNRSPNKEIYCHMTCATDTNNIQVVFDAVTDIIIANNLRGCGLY
Insulin prom inh – TRM-6 insulin promoter activity inhibition. TRM-6 cells (human fetal islet line), insulin promoter-eGFP reporter, imaging; reporter expression induced with tamoxifen. inhibition, % at 2 µM. hit rate 0.9% among 130,000;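 active = inhibition above the mean plus 3 SD, with well images judged a real hit on visual review, cut at about 60% in these data, passing the limit was not always enough; inconclusive = inhibition over the cutoff but images rejected on review; inactive = inhibition not above the cutoff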
GALR2 agonist – activates the human galanin receptor 2. activation, %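 (tested at 5 µM)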. O43603. AID 803. hit rate 0.48% among 140,000. GALR2-expressing cells, agonist activation read-out;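 active = above mean plus 3 SD of all compounds, about 5% in these data, not always enough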;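 also: 0% = vehicle buffer wells and 100% = reference agonist at full effect; tested in CHO reporter cells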
Target sequence (O43603 whole entry, looked up): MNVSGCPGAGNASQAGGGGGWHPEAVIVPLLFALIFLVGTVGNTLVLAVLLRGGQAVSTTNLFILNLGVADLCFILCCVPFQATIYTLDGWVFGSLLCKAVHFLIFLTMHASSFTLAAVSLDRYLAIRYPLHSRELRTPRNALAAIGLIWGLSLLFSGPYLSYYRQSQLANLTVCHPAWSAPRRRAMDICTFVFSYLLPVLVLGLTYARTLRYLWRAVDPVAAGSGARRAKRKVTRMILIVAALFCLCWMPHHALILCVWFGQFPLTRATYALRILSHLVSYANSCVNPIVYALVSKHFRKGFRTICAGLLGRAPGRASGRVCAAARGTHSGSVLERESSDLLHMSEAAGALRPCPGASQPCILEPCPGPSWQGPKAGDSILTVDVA
HSV replic up – increases HSV replication in cells. hit rate 0.005% among 220,000. maximum fold increase. HSV replication augmentation in cells, fold increase;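 active = peak rise of 1.5-fold or more in the series; inconclusive = self-fluorescent or not available for retest; tested in PC3 cells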;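 also: first round at 10 µM; read as green reporter fluorescence; hits show the peak of a series up to 25 µM; 1 = signal of infected wells without compound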
Insulin prom inh cell count – recorded beside Insulin prom inh, whose call it bears; normalized cell count, %; measured here: cell count, toxicity; reference of the scale not given here;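 cells exposed to compound for 48 h; stained nuclei by imaging scaled within each plate; lower means fewer cells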
HSV replic up primary fold – second read-out of HSV replic up, no call of its own (marks repeat the call); fold increase; compound at 10 µM; measured here: primary screen fold increase 10 uM; tested in PC3 cells;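 GFP signal in the first replicate; 1 = infected wells without compound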
Starred values were filed as active, the others as inactive; i = inactive; ? = inconclusive; . = not tested or not shown; & = joins results of further samples; [ ] = remark or other dose.

SMILES	PKD1 kinase inh	RGS16-Gao HTS	Insulin prom inh	Insulin prom inh cell count	GALR2 agonist	HSV replic up	HSV replic up primary fold
COC(=O)C1CCN(C(=O)COC(=O)CC(NC(C)=O)c2ccccc2)CC1 (configuration not stated)	-6	98	-21	84	-1.3	i	0.98
Cc1ccc(N(Cc2cc3ccccc3[nH]c2=O)S(C)(=O)=O)cc1	-5	106	.	.	.	i	0.95
O=C(COc1ccccc1)Nc1nnc(-c2ccccc2)o1	-11	100	.	.	-1.3	i	1
CCOC(=O)CSc1ccccn1	0	99	.	.	.	i	1
CCC(C)c1ccccc1NC(=O)Cc1coc2cc3c(cc12)CCC3 (configuration not stated)	-7	109	.	.	0.4	i	0.99
CC1Cc2ccccc2N1C1=CC(=O)CCC1 (configuration not stated)	-6	98	19	116	.	i	1.1
C(=N\n1cnnc1)/c1ccc(N2CCOCC2)s1	-6	119	21	113	-0.4	i	0.89
O=C(CN1C(=O)c2ccccc2C1=O)N1CCN(c2ccccc2)CC1	4	102	-111	86	-2.2	i	1
COCCOC(=O)c1nccnc1C(=O)Nc1ccc(S(=O)(=O)N2CCOCC2)cc1	.	101	.	.	.	i	0.9
COc1ccc(-c2cn(-c3ccccc3)c3[n+]2CCS3)cc1	-4&3	102&65	11&-28	68&101	-0.6&-0.6	i	0.91&0.98
Cc1ccc(-n2c(C)cc(/C=N/NC(=O)c3ccc(CN4CCOCC4)cc3)c2C)cc1	-9	111	-52	56	0.1	i	0.81
COCc1nc(-c2ccc(-c3ccc(OC)cc3)nc2OC)no1	0	94	.	.	-0.9	i	0.8
N#C/C(=C/c1ccc(-c2ccc(S(N)(=O)=O)cc2)o1)c1nc2ccccc2s1	10	100	-257	109	0.0	.	.
COc1nc(C)ccc1-c1noc(-c2ccncc2)n1	1	102	-64	109	-2.8	i	0.9
CC1=NN(c2ccc(C)c(C)c2)C(=O)C1C(c1cccc(O)c1)C1C(=O)N(c2ccc(C)c(C)c2)N=C1C (configuration not stated)	4	97	0	130	-0.6	?	.
O=C(COC(=O)/C=C/c1ccccc1[N+](=O)[O-])Nc1ccc(OCc2ccccc2)cc1	-1	99	-34	142	0.5	i	0.91
O=C(CN1CCc2ccccc2C1)Nc1ccccc1N1CCCCCC1	3	103	38	74	1.5	i	1.2
COc1cccc(/C=N/NC(=O)C[n+]2ccccc2)c1OC	7	101	27	124	-0.2	i	0.99
O=C(O)CS(=O)CC(=O)Nc1cccc(C(F)(F)F)c1 (configuration not stated)	6	101	18	101	.	i	0.98
CN(C)c1ccc(NC(=S)N2CCN(c3ncc(C(F)(F)F)cc3Cl)CC2)cc1	.	94	.	.	.	i	0.91
COc1ccc(-c2nnc(SCc3cccc(C)c3)n2N)cc1	-5	101	-29	226	-2.9	i	0.91
CC(C)=NOc1nc(N(C)C)nc(N(C)C)n1	-10	208*[activator]	-79	57	-1.1	i	0.99
COC(=O)c1ccc(Cn2cc(C(F)(F)F)ccc2=O)cc1	-4	100	.	.	.	i	1
N=c1sc2ccccc2n1-c1ccccc1	-5	99	50	108	-4.7	i	0.91
Cc1cccc(NC(=S)N(CCN(C)C)Cc2cc3cc(C)cc(C)c3[nH]c2=O)c1	7	102	24	113	-0.4	i	0.73
Cc1ccc(S(=O)(=O)CNC(=S)c2ccc3ccccc3c2)cc1	-3	101	37	115	-1.9	i	0.91
CCOc1ccc(-n2c(SCc3ccc([N+](=O)[O-])cc3)nnc2-c2ccccc2)cc1	-6	100	-3	93	0.3	i	0.81
CN(C1CCCCC1)S(=O)(=O)c1ccc2c(c1)c(=O)c(C(=O)NCCN1CCCC1)cn2C	-2	102	.	.	-3.1	i	1
O=C(Nc1nc(-c2ccncc2)cs1)c1ccco1	-1	97	21	172	-1.3	i	0.95
CCOc1ccc(C(=O)Nc2cc(C)on2)cc1	-5	100	.	.	-2.4	i	0.87
Cc1cc(C(=O)COc2cccnc2[N+](=O)[O-])c(C)n1Cc1cccs1	3	98	.	.	.	i	1.1
O=C(Oc1ccc2ccccc2c1)c1ccco1	-11	100	.	.	-0.7	i	0.98
CCS(=O)(=O)CCSc1nc2ccccc2o1	-12	99	-185	143	-0.9	i	0.94
O=C1NC2(CCCCCC2)N=C1c1ccc(F)cc1	-1	99	16	198	-1.8	i	0.95
Nc1nonc1C(=O)NCCNCc1c(OCc2ccccc2F)ccc2ccccc12	4	70	-277	115	-2.2	i	0.83
COCCn1c(SCC(=O)Nc2nnc(C)s2)nnc1-c1c[nH]c2ccccc12	-5	102	-37	180	0.3	i	0.88
COc1cc2c(=O)n(-c3ccc(C)cc3)c(=O)n(CC(=O)c3ccc4c(c3)OCO4)c2cc1OC	0	103	.	.	0.1	i	0.87
COc1ccc(C)cc1NC(=O)C1CC(=O)N(Cc2ccco2)C1 (configuration not stated)	-4	91	-12	123	-1.3	i	1
Cc1cccc(NC(=S)NCc2ccc3c(c2)OCO3)c1C	-2	98	44	144	-2.4	i	0.89
CCOC(=O)c1c(C)[nH]c(C(=O)OCC(=O)N2CCc3ccccc32)c1C	6	88	.	.	-2.6	.	.
CCOC(=O)C(C)Sc1nc(N)c(NC(=O)c2ccc(OC)c(OC)c2)c(=O)[nH]1 (configuration not stated)	-7	101	.	.	-3.4	i	0.82
O=C(Nc1nc2ccc(S(=O)(=O)N3CCCCC3)cc2s1)c1ccncc1	2	80	-9	26	-0.4	i	0.9
O=C(CSc1ccc2c(c1)OCCO2)NCc1ccco1	1	65	.	.	-1.7	i	1.1
COc1ccccc1NS(=O)(=O)N(C)C	-1	89	-26	180	-1.0	i	0.8
COc1ccc(-n2c(=O)c3ccccc3n(CC(=O)Nc3cccc(OC)c3)c2=O)cc1	0	104	.	.	.	i	0.92
O=c1oc(-c2cc3ccccc3o2)nc2sc3c(c12)CCCC3	1	103	-27	131	-1.0	i	0.82
CCCCOc1ccc(C(=O)NCC2(c3ccc(OC)cc3)CCOCC2)cc1	-8	100	.	.	-1.2	i	0.85
CCOC(=O)c1cnn(CCOC(=O)c2ccccc2F)c1NC(=O)c1ccccc1F	-7	115	19	80	-1.1	i	0.96

Complete entries as entered above.
CCOC(=O)c1cnn(CCOC(=O)c2ccccc2F)c1NC(=O)c1ccccc1F in the list: PKD1 kinase inh: -7; RGS16-Gao HTS: 115; Insulin prom inh: 19; Insulin prom inh cell count: 80; GALR2 agonist: -1.1; HSV replic up: i; HSV replic up primary fold: 0.96
COc1ccccc1NS(=O)(=O)N(C)C in the list: PKD1 kinase inh: -1; RGS16-Gao HTS: 89; Insulin prom inh: -26; Insulin prom inh cell count: 180; GALR2 agonist: -1.0; HSV replic up: i; HSV replic up primary fold: 0.8

Next part:
SMILES	PKD1 kinase inh	RGS16-Gao HTS	Insulin prom inh	Insulin prom inh cell count	GALR2 agonist	HSV replic up	HSV replic up primary fold
O=C(CCc1ccccc1)Nc1ccc(N2CCOCC2)c(Cl)c1	-1	106	54	142	-2.0	i	1
CCOC(=O)c1ccc(NC(=O)CN2C(=O)NC3(CCCCCC3)C2=O)cc1	10	108	-67	185	.	i	0.95
Cc1onc(COc2ccccc2O)c1Br	1	100	33	74	-1.3	i	0.88
Cc1cc2oc(=O)cc(CSc3nc(N)cc(N)n3)c2cc1C	-12	98	19	123	-1.4	i	0.81
Nn1c(Nc2ccc(Cl)cc2)nncc1=O	-1	101	.	.	.	i	1.1
COc1ccc(-c2ccc(OC)c([C@H]3[C@@H]4C=CCC[C@@]4(C)C(=O)N3Cc3ccccc3)c2)cc1OC	.	103	.	.	.	i	0.78
COc1cc(/C=N/NC(=O)/C(=C\c2ccc3c(c2)OCO3)NC(=O)c2ccccc2)ccc1O	-4	95	.	.	-0.9	i	1.1
CCN(CC)S(=O)(=O)c1ccc(Cl)nc1	-1	102	18	107	.	i	1
COc1ccc(C(=O)N2CCN(C3CCN(Cc4ccccc4)CC3)CC2)cc1OC	3	103	-4	88	-0.6	.	.
COc1ccc(-c2cn[nH]c2C)cc1	.	93	.	.	.	i	1.3
COc1ccc(NC(=O)C2CCCN2C(=O)Oc2ccccc2)cc1 (configuration not stated)	2	104	.	.	.	i	0.86
COc1ccc2c(c1)SC1=NCCS(=O)(=O)N12	-16	106	.	.	-2.6	i	0.88
CN(C)S(=O)(=O)c1ccc(C(=O)N2CCN=C2SCc2ccccc2)cc1	6	98	-85	53	.	i	0.99
O=c1cc[nH]c2ccc(Cl)cc12	-7	102	43	110	-1.5	i	0.87
COC(=O)c1ccccc1NC(=O)N1CCN(c2ccc(OC)cc2)CC1	2	101	26	112	.	i	1
Cc1c(C(=O)NC(=S)Nc2ccc(NC(=O)c3cccs3)cc2)cccc1[N+](=O)[O-]	-5	.	40	132	0.1	i	0.64
N/C(=N\OC(=O)COc1ccccc1)c1ccncc1	.	89	.	.	.	i	1
CCCOc1ccc(C(C)=O)cc1CC(C(N)=O)C(N)=O	-7	88	-4	110	-0.6	.	.
N#Cc1c(N)nc2c(c1-c1ccc(F)cc1)c(=O)nc1sccn12	-1	107	45	189	.	i	0.89
CNc1nc(-c2ccc3c(c2)CCN3C(=O)c2cccc(F)c2)cs1	.	105	.	.	.	i	0.78
COc1ccc(N(CC(=O)NCCC2=CCCCC2)S(=O)(=O)c2ccccc2F)cc1	.	105	.	.	.	i	0.93
COc1ccc(C(=O)OCC(=O)Nc2cc(C)on2)c(OC)c1OC	-7	99	.	.	.	i	1
C#CCSc1nnc(-c2c[nH]c3ccccc23)n1C	10	103	-129	119	-0.4	i	0.88
CC(C)NC(=S)NN=C1CCC(c2ccccc2)CC1 (configuration not stated)	0	103	27	118	.	i	1
O=C(NCC1CCCC(CNC(=O)N2CCc3ccccc32)C1)N1CCc2ccccc21 (configuration not stated)	-7	102	-16	67	-1.3	i	0.86
CCCCCCc1cc2cc(C(=O)OCC)c(=O)oc2cc1O	.	101	.	.	.	i	1.2
COC(=O)c1ccc(NC(=S)N2CCCC2)cc1	-2	101	-11	119	.	i	0.82
Cc1ccc(NC(=O)N2N=C(c3ccc(F)cc3)CC2c2ccc(F)cc2)cc1 (configuration not stated)	-7	105	-8	130	-0.2	i	0.96
COC(=O)/C(C#N)=C/c1ccc(OC(=O)c2ccccn2)cc1	-3	88	21	98	-2.6	i	1
C=CCOc1ccc(/C=N/NC(=O)C(C)Sc2ccccn2)cc1OCC (configuration not stated)	-5	92	54	143	1.0	i	0.92
COc1ccc(N=Nc2cc(C)ccc2O)cc1	.	100	.	.	.	i	0.91
S=C(Nc1ccc(Cl)cc1)NC1CC2CCC(C1)N2Cc1ccccc1 (configuration not stated)	1	98	.	.	.	i	0.65
Cc1ccc(C(=O)CSc2cc(C)nc(SCC(=O)c3ccccc3)n2)cc1	-4	231	14	104	-1.3	i	0.92
COCCSc1nnc(NC(=O)c2ccc(NC(=O)C(C)C)cc2)s1	8	112	.	.	.	i	0.88
CCN(CC)S(=O)(=O)c1ccc(C)c(NC(=O)COC(=O)CNC(=O)c2ccc(C(C)(C)C)cc2)c1	-8	110	0	80	-2.2	i	0.93
Cc1nn(CCC#N)c(NC(=O)c2ccccc2)c1P(=O)(Nc1ccc(Br)cc1)N1CCOCC1 (configuration not stated)	8	102	-93	121	.	i	1
Cc1c(N2C(=O)c3ccccc3C2=O)c(=O)n(-c2ccccc2)n1C	-6	115	.	.	-2.6	i	0.92
COc1cc(O)c(C(CC(=O)N2CCN(c3ccccc3)CC2)c2ccc3c(c2)OCO3)c(OC)c1 (configuration not stated)	.	80	.	.	.	i	0.73
CC1(c2ccc([N+](=O)[O-])c(CS(=O)(=O)c3ccccc3)c2)OCCO1	-2	116	i	49	.	i	0.93
COc1cc(OC)cc(-c2nnc(SCC(=O)Nc3ccc(C(=O)O)cc3)s2)c1	2	102	25	135	.	i	0.99
COc1ccc(-c2nc3ccccn3c2NCc2ccc3c(c2)OCO3)cc1	2	54	-147	74	-3.7	i	1.1
CCOc1ccc2nc(N3CCCCCC3)sc2c1	-5	102	-50	109	-1.6	i	0.91
O=C(O)c1cc(-c2ccc(Cl)s2)[nH]n1	.	97	.	.	.	i	0.98
N#CCCN1CCN(S(=O)(=O)c2ccc(S(=O)(=O)NC3CCCC3)cc2)CC1	-11	100	.	.	-0.8	i	0.74
Cc1ccc(C)c(/C(O)=C2/C(=O)C(=O)N(CCN3CCOCC3)C2c2ccco2)c1 (configuration not stated)	-1	98	21	117	-2.3	i	1
